Screening results from PubChem.
GALR2 ag: agonists of human galanin receptor 2 (GALR2); activation, %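 (tested at 5 µM)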; GALR2-expressing cells, agonist activation read-out; O43603; hit rate 0.48% among 140,000;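 active = above mean plus 3 SD of all compounds, about 5% in these data, not always enough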;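 also: 0% = vehicle buffer wells and 100% = reference agonist at full effect; tested in CHO reporter cells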
Target sequence (O43603 whole entry, looked up): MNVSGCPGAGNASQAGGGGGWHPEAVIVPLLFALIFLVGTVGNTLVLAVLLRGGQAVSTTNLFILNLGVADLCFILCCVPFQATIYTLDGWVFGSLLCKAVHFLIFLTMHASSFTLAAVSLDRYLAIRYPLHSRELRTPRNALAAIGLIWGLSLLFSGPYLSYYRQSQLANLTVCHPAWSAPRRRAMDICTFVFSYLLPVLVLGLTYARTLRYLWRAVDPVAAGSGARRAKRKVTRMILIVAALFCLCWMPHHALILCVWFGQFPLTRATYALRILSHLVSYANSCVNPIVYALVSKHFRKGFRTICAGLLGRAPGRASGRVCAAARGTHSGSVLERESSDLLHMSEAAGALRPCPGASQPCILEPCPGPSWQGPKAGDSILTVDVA
PKD1 kinase inh: PKD1 (human) kinase inhibition. inhibition, %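 (about 10 µM by stock and volumes)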. hit rate 0.056% among 200,000. PKD1 kinase fluorescence polarization assay. Q15139. AID 797;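 active = inhibition of 50% or more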;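 also: controls were vehicle for no effect and a reference inhibitor for full effect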
INS promoter inh: TRM-6 insulin promoter activity inhibition; hit rate 0.9% among 130,000; TRM-6 cells (human fetal islet line), insulin promoter-eGFP reporter, imaging; reporter expression induced with tamoxifen; AID 1273; inhibition, % at 2 µM;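 active = inhibition above the mean plus 3 SD, with well images judged a real hit on visual review, cut at about 60% in these data, passing the limit was not always enough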
HSV replic up: HSV replication enhancement | HSV replication augmentation in cells, fold increase | maximum fold increase | hit rate 0.005% among 220,000;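 active = peak rise of 1.5-fold or more in the series; tested in PC3 cells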;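 also: first round at 10 µM; read as green reporter fluorescence; hits show the peak of a series up to 25 µM; 1 = signal of infected wells without compound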
RGS16-Gao: modulates binding between human RGS16 and Galphao. hit rate 0.38% among 220,000. AID 1441. O15492+P09471. bead-based flow cytometry RGS16-Galphao binding, fluorescence; actives lie on both sides. binding response (% of control), % at 10 µM;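 active = below 25% or above 175%, edge rows of some plates excepted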;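 also: Galphao activated by GDP with aluminum fluoride before binding; 100% = wells without compound and 0% = beads without RGS; some results beyond the cut were filed as inactive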
Target sequence (O15492 whole entry, looked up): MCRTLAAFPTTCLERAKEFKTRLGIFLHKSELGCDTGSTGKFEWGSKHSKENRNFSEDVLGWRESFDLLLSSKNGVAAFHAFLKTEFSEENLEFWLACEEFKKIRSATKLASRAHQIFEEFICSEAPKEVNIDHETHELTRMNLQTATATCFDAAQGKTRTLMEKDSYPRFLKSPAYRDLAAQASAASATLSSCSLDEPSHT
Target sequence (P09471 whole entry, looked up): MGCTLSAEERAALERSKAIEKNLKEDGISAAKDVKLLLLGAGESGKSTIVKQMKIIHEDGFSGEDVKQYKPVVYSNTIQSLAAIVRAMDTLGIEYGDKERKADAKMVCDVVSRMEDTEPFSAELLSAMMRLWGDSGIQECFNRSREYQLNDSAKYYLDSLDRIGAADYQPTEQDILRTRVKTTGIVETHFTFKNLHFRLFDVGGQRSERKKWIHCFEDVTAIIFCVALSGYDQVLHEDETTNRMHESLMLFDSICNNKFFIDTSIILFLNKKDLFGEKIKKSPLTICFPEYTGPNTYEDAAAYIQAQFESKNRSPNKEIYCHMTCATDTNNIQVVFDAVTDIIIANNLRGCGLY
INS promoter inh cell count: second read-out of INS promoter inh, no call of its own (marks repeat the call); normalized cell count, %; measured here: cell count, toxicity; reference of the scale not given here;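 cells exposed to compound for 48 h; stained nuclei by imaging scaled within each plate; lower means fewer cells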
HSV replic up primary fold: also measured in HSV replic up; calls as there; fold increase; compound at 10 µM; measured here: primary screen fold increase 10 uM; tested in PC3 cells;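 GFP signal in the first replicate; 1 = infected wells without compound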
An asterisk follows results filed as active; i = inactive; . = not tested or not shown.

SMILES	GALR2 ag	PKD1 kinase inh	INS promoter inh	INS promoter inh cell count	HSV replic up	HSV replic up primary fold	RGS16-Gao
CCOc1ccccc1CN1CCN(Cc2cn(C)nc2-c2ccccc2)CC1CCO (stereo not given)	.	5	-11	137	i	1.3	96
CCOc1cccc(NC(=O)c2cnccc2C(F)(F)F)c1	.	.	.	.	i	0.69	94
CC(=O)Nc1ccc(NC(=O)CN(c2cccc([N+](=O)[O-])c2)S(C)(=O)=O)cc1	.	-7	-6	157	i	0.92	102
Cc1cc(C)nc(NC(=O)C(c2ccccc2)c2ccccc2)n1	-3.3	8	-48	91	i	0.85	103
Cc1ccc2nc(-c3ccc(N)cc3)sc2c1	.	.	.	.	i	0.96	101
Cc1cccc(C)c1OCC(O)CNS(=O)(=O)c1ccccc1C(=O)N1CCCCC1 (stereo not given)	-1.3	-8	-114	115	i	0.94	77
COc1cc(OC)cc(C(=O)Nc2ccc(S(=O)(=O)Nc3cc(C)on3)cc2)c1	-0.1	5	-20	88	i	0.88	105
CCN(CCC#N)c1ccc(/C=N/Nc2nc(C)cc(=O)[nH]2)c(C)c1	-0.8	-6	.	.	i	1	101
O=c1c2oc3ccccc3c2ncn1Cc1ccccc1F	-1.0	-15	.	.	i	0.86	100
COc1ccc(C2c3[nH]c4ccccc4c3CCN2Cc2cccn2-c2ncccn2)cc1C (stereo not given)	.	-6	.	.	i	1.1	154
COc1cc([C@H]2[C@@H]3CCCC[C@]3(O)CCN2CC(=O)Nc2ccc(C)cc2C)ccc1O	-0.8	2	0	163	i	0.85	102
Cc1cc(C)n(C(=O)CCNC(=O)c2ccccc2Br)n1	-3.5	-1	.	.	i	0.83	69
COc1cccc(C(=O)N=c2sc3cc(S(C)(=O)=O)ccc3n2C)c1	.	-4	.	.	i	0.94	93
Cc1cccc(NC(=O)/C=C/c2ccc([N+](=O)[O-])s2)c1	0.3	-1	.	.	.	.	105
CCOC(=O)C(CCCOc1cccc(CC)c1)C(=O)OCC	-0.1	0	31	88	i	0.97	97
Cc1nnsc1-c1c(C(=O)Oc2ccccc2)c(C)nn1-c1ccccc1	.	.	.	.	i	1.1	99
COc1ccc(/C=N/n2cnnc2SCCO)cc1OC	0.3	-4	-20	65	i	1	104
CCCCn1c(O)c(C=NCCCN(C)C)c(=O)[nH]c1=O	-0.5	-9	0	75	i	0.93	91
O=C(CCn1c(=O)sc2ccccc21)Nc1cccnc1	-0.9	-9	30	121	i	0.91	97
COCCNC(=O)CN1C(=O)NC2(CCCCCC2)C1=O	.	0	.	.	i	1.1	101
O=C(Nc1ccc2c(c1)nc1n2CCN(C2CCCCC2)C1)c1ccco1	.	.	.	.	i	0.85	93
O=C(COc1cccc2cccnc12)NNC(=S)Nc1ccccc1	.	0	-88	123	i	0.86	101
CCCn1c(C(C)NC(=O)c2ccccc2)nc2ccccc21 (stereo not given)	0.1	-9	-28	152	i	0.88	102
Cc1nc(SCC(=O)O)c2oc3ccccc3c2n1	-2.0	-4	.	.	i	0.98	132
CC(=O)Nc1ccc(-n2nnnc2SCC(=O)NCc2cccs2)cc1	.	-2	-14	74	i	0.94	86
Further records follow.
SMILES	GALR2 ag	PKD1 kinase inh	INS promoter inh	INS promoter inh cell count	HSV replic up	HSV replic up primary fold	RGS16-Gao
Cc1ccc(-n2ncc3c(=O)n(-c4ccc(C)c(C)c4)c(C)nc32)cc1	0.0	-17	.	.	i	0.91	103
CN(C)S(=O)(=O)c1cccc(NC(=O)CSc2ncnc3ccccc23)c1	.	.	.	.	i	0.91	94
Cc1ccc(-c2nnc(CSc3nnc(COc4cccc5ccccc45)n3-c3ccccc3)o2)cc1	-1.9	6	-33	81	.	.	102
CCCCSc1nc(N)c(C#N)c(-c2cccs2)c1C#N	-1.4	3	.	.	i	0.86	88
Nc1sccc1C(=O)c1ccccc1	0.8	3	0	75	i	1	99
O=C(Nc1ccc(-c2cnco2)cc1)c1ccccc1	.	.	.	.	i	0.96	103
Cc1cc(-c2ccccc2)n2ncnc2n1	.	.	.	.	i	0.86	107
COC(=O)C1=C(C(=O)c2ccccc2)C(c2ccccc2)n2nnnc2N1 (stereo not given)	.	-5	45	88	i	0.99	98
O=C(CCC(=O)N1CCOCC1)Nc1nnc(C2CCCCC2)s1	-0.3	-2	-19	149	i	0.98	99
O=C1CN(S(=O)(=O)c2cc(Cl)ccc2Cl)CCN1	.	6	28	89	i	1	103
CN1C(=O)C(CC(=O)NC2CCCCC2)SC1=Nc1ccccc1 (stereo not given)	-0.5	-12	.	.	i	0.98	108
CCN(CC)C(=O)C1CCC(CNS(=O)(=O)c2cccc3cccnc23)CC1 (stereo not given)	-0.3	-16	.	.	i	0.96	105
NC(=O)c1ncc(C(F)(F)F)cc1Oc1cccnc1	.	-1	55	130	i	1.1	105
CCCCCC(=O)Cc1cc(O)cc2c1C(=O)Oc1cc(O)c(C(=O)O)c(CCCCC)c1O2	.	.	.	.	i	0.96	103
NC(=O)c1ccc2c(=O)n3c(-c4cccs4)csc3nc2c1	.	.	.	.	i	0.93	104
N#Cc1c(-c2ccco2)c2c([nH]c1=S)CCCC2	.	.	.	.	i	1.1	98
O=C(COC(=O)c1ccc2c(c1)S(=O)(=O)c1ccccc1C2=O)NC1CC1	.	-8	.	.	i	0.95	95
Cc1ccn2cc(C34CC5CC(CC(C5)C3)C4)nc2c1	.	2	.	.	i	0.95	103
CCN1C(=O)/C(=C2/Sc3ccccc3N2CC)S/C1=N\c1ncn[nH]1	.	6	.	.	i	1	104
CCOC(=O)c1c(CSc2ccc(C)cc2)n(C)c2cc(Br)c(O)c(CN(C)C)c12	.	-4	.	.	i	0.9	96
Cc1cc(C)cc(NC2=NCC(=O)N2Cc2ccccc2)c1	-1.8	6	-16	69	i	0.97	99
Cc1cc2nn(-c3cccc4ccccc34)nc2cc1N	3.3	1	25	167	i	0.94	97
CCOC(=O)c1ccc(NC(=O)CC2COc3ccccc3O2)cc1 (stereo not given)	-3.9	9	26	128	i	0.95	100
COc1c2ccoc2c(OC)c2oc(=O)ccc12	.	.	.	.	i	0.82	128
COc1cc(S(=O)(=O)N2CCOCC2)c(OC)c(S(=O)(=O)N2CCOCC2)c1	-3.4	-9	-18	115	i	0.69	.
(listing goes on)
SMILES	GALR2 ag	PKD1 kinase inh	INS promoter inh	INS promoter inh cell count	HSV replic up	HSV replic up primary fold	RGS16-Gao
CCOC(=O)N1CCN(C(=O)c2ccc3nc(N4CCC(C)CC4)sc3c2)CC1	-0.2	-3	.	.	i	0.92	103
CCOc1ccc(Cc2n[nH]c(=S)n2N)cc1	-1.1	-6	10	100	i	0.94	95
O=C(NCCCn1ccnc1)C(F)(F)C(F)(F)C(=O)NCCCn1ccnc1	-1.7	-8	32	63	i	0.77	105
COc1ccccc1/C=C/C=N/n1c(-c2ccc(C)cc2)n[nH]c1=S	0.1	-7	-20	59	i	0.87	97
CCOc1cc(CNn2cnnc2SCC(=O)NC(C)(C)C)ccc1OCC(=O)NC(C)(C)C	.	5	-20	126	i	0.96	102
CSc1ccccc1NC(=O)COC(=O)c1c[nH]c(=O)[nH]c1=O	.	.	.	.	i	1.1	101
Cc1ccc(NC(=O)CSc2nsc(SCC(=O)Nc3ccc(C)cc3C)c2C#N)c(C)c1	-1.5	-1	.	.	i	1.1	108
CN(C)c1nc(N(C)C)nc(N2CC(CCl)OC2=N)n1 (stereo not given)	.	-4	60	105	i	0.92	101
O=C(N/N=C/c1cccnc1)c1cc(-c2cccs2)nc2ccccc12	-1.4	-10	7	21	i	0.62	122
O=C(O)c1ccc(CNC(=O)c2ccccc2NC(=O)c2cccc([N+](=O)[O-])c2)cc1	.	-5	-40	117	i	1	104
CCOC(=O)Cc1csc(SCc2nc3sc4c(c3c(=O)[nH]2)CCC4)n1	-3.4	-1	-22	169	i	0.96	100
COC(=O)c1c(N2C(=O)Nc3ccccc3N2O)sc(C)c1C	.	-3	14	107	i	0.97	103
O=C(COC(=O)c1ccc[nH]c1=O)Nc1ccc(S(=O)(=O)N2CCCC2)cc1	.	.	.	.	i	0.93	100
CC(=O)Nc1nc(-c2ccc(Cl)cc2)ns1	0.0	4	-86	45	i	1	102
Cc1ccc(NC(=O)C2CCCN(C(=O)c3ccc(Cl)cc3)C2)cc1 (stereo not given)	.	4	-73	96	i	0.87	110
N#Cc1cc(N)ccc1Sc1ccc(Cl)cc1	-2.2	2	13	119	i	0.93	99
COc1ccc(-c2nn(-c3ccccc3)cc2/C=N/NC(=O)c2cccc(S(=O)(=O)Nc3ccccc3OC)c2)cc1	-1.9	-12	28	100	i	0.89	113
COCCn1c(SCC(=O)Nc2ncc(Cl)c(C)c2Cl)nc2ccccc21	-0.5	-4	-18	141	i	0.82	103
O=C(Nc1nc2cc3c(cc2s1)OCO3)c1cccc(N2C(=O)CCC2=O)c1	.	.	.	.	i	1	109
CC1CCN(c2ccc(NC(=O)c3cccnc3Cl)cc2)CC1	.	4	-42	80	i	1.2	103
COc1ccc(COc2cc(-c3cccc(OC)c3)nc3ccc(NC(=O)c4ccccc4)cc23)cc1	-1.1	-16	15	82	i	0.51	108
O=C1c2ccccc2NC(c2ccc3c(c2)OCO3)N1O (stereo not given)	-1.1	1	42	120	i	0.92	102
O=C(O)/C(=C\c1cn(-c2ccccc2)nc1-c1cccnc1)NC(=O)c1ccccc1	.	.	.	.	i	0.93	97
CNS(=O)(=O)c1ccc(NC(=O)c2cnn3c(C(F)F)cc(-c4ccccc4)nc23)cc1	.	-7	-8	130	i	0.71	106
Cc1nc2ccccc2n1CC(=O)NC1CCCCCC1	.	.	.	.	i	1.2	102
COc1ccc(NCc2ccccc2[N+](=O)[O-])cc1OC	1.0	3	33	64	i	0.84	104
COc1ccc(Cn2nnnc2C(CC(C)C)N2CCC(C(N)=O)CC2)cc1 (stereo not given)	.	3	14	174	i	0.99	99
C=C(C)c1cccc(C(C)(C)NC(=O)NCC2COCCO2)c1 (stereo not given)	-2.3	-3	.	.	i	0.91	103
CC1CCCN(S(=O)(=O)c2ccc(S(=O)(=O)N3CCC4(CC3)OCCO4)cc2)C1 (stereo not given)	-1.6	-8	.	.	i	0.97	216
CCOC(=O)c1c(CSC(=N)N)n(-c2ccccc2)c2cc(Br)c(OC(C)=O)cc12	.	.	.	.	i	0.53	97

Entries from the list above with two or more sulfur atoms, in the order listed:
SMILES	GALR2 ag	PKD1 kinase inh	INS promoter inh	INS promoter inh cell count	HSV replic up	HSV replic up primary fold	RGS16-Gao
COc1cccc(C(=O)N=c2sc3cc(S(C)(=O)=O)ccc3n2C)c1	.	-4	.	.	i	0.94	93
CC(=O)Nc1ccc(-n2nnnc2SCC(=O)NCc2cccs2)cc1	.	-2	-14	74	i	0.94	86
CN(C)S(=O)(=O)c1cccc(NC(=O)CSc2ncnc3ccccc23)c1	.	.	.	.	i	0.91	94
CCCCSc1nc(N)c(C#N)c(-c2cccs2)c1C#N	-1.4	3	.	.	i	0.86	88
NC(=O)c1ccc2c(=O)n3c(-c4cccs4)csc3nc2c1	.	.	.	.	i	0.93	104
CCN1C(=O)/C(=C2/Sc3ccccc3N2CC)S/C1=N\c1ncn[nH]1	.	6	.	.	i	1	104
COc1cc(S(=O)(=O)N2CCOCC2)c(OC)c(S(=O)(=O)N2CCOCC2)c1	-3.4	-9	-18	115	i	0.69	.
Cc1ccc(NC(=O)CSc2nsc(SCC(=O)Nc3ccc(C)cc3C)c2C#N)c(C)c1	-1.5	-1	.	.	i	1.1	108
CCOC(=O)Cc1csc(SCc2nc3sc4c(c3c(=O)[nH]2)CCC4)n1	-3.4	-1	-22	169	i	0.96	100
CC1CCCN(S(=O)(=O)c2ccc(S(=O)(=O)N3CCC4(CC3)OCCO4)cc2)C1 (stereo not given)	-1.6	-8	.	.	i	0.97	216
